High-throughput results (PubChem BioAssay)
AID504770: growth inhibitors of E. coli YBA685 in a screen for V. cholerae RctB (chromosome II replication) inhibitors; E. coli YBA685 rctB-dependent plasmid, OD600 growth, 3 h; hits give low values; z-score (no concentration beside the values); 0.27% of 130,000 active;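 active = z-score under -2 on both plates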;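 note: wells of about 30 µL received 100 nL stock; score is relative to mean and SD of the test wells; the first replicate is given; strong numbers were not always called active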
Ba CapD inh: blocks the Bacillus anthracis CapD enzyme | purified CapD enzyme, fluorescence intensity read-out; hits give low values; some hits fall short of the stated cut | z-score (test concentration not listed) | 0.23% of 140,000 active | AID 492967;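 active = z-score under -4 in either of two replicates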;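 note: stock transfer was 100 nL into about 40 µL; score is relative to mean and spread of the plate; one replicate is shown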
The depositor's hits bear a star; . = no result given.

Sample of the layout (15 entries):
Each structure is followed by: AID504770	Ba CapD inh
> O=C(CN1CCCCC1)Nc1ccccc1-c1nc2ccccc2[nH]c1=O
    -2.7	.
> Clc1ccc(/C=N/c2ccccn2)cc1
    -1	1.5
> CCO/C=N/c1oc(C)c(C)c1C#N
    -0.1	6.1
> O=C(NCc1ccccc1)C1CCCN(S(=O)(=O)c2ccc3nc(-c4ccccc4)[nH]c3c2)C1 (centres undefined)
    -0.3	1.3
> CC(C)c1nc2ccccc2n1CC(=O)N(c1ccccc1)C(C)C
    1.2	0.2
> COc1ccc(CC(=O)OCC(=O)c2ccccc2)cc1OC
    -0.35	.
> CCOC(=O)N1CCN(C(=S)Nc2ccc3nsnc3c2)CC1
    -0.2	.
> O=C(CN1CCN(c2ccccc2)CC1)N1CCc2ccccc21
    -1.1	-0.51
> COc1ccc(/C=C2\N=C(c3ccc(Cl)cc3)N(c3cc(Cl)ccc3C)C2=O)cc1OC
    .	-2.3
> COC(=O)c1c(C)oc2ccc(OCC(N)=O)cc12
    -0.5	1
> O=C(C1=C(c2ccccc2)C(=O)c2ccccc2C1=O)c1ccccc1
    0.25	25
> CN1CCCN(C(=O)c2ccccc2OCc2ccccc2)CC1
    -0.35	-0.26
> CC(C)CC(=O)OCc1ccc(Cl)c(Cl)c1
    0.2	0.08
> CC(C)(C)OC(=O)C(NC(=O)c1ccc(-c2ccccn2)s1)c1ccccc1 (centres undefined)
    .	9.5
> COc1cc2[nH]c(=O)n(CCCC(=O)N3CCN(c4cccc(Cl)c4)CC3)c(=O)c2cc1OC
    -0.1	0.41

All compounds of this part, from the first entry:
Each structure is followed by: AID504770	Ba CapD inh
> O=C(CN1CCCCC1)Nc1ccccc1-c1nc2ccccc2[nH]c1=O
    -2.7	.
> Clc1ccc(/C=N/c2ccccn2)cc1
    -1	1.5
> CCO/C=N/c1oc(C)c(C)c1C#N
    -0.1	6.1
> O=C(NCc1ccccc1)C1CCCN(S(=O)(=O)c2ccc3nc(-c4ccccc4)[nH]c3c2)C1 (centres undefined)
    -0.3	1.3
> CC(C)c1nc2ccccc2n1CC(=O)N(c1ccccc1)C(C)C
    1.2	0.2
> COc1ccc(CC(=O)OCC(=O)c2ccccc2)cc1OC
    -0.35	.
> CCOC(=O)N1CCN(C(=S)Nc2ccc3nsnc3c2)CC1
    -0.2	.
> O=C(CN1CCN(c2ccccc2)CC1)N1CCc2ccccc21
    -1.1	-0.51
> COc1ccc(/C=C2\N=C(c3ccc(Cl)cc3)N(c3cc(Cl)ccc3C)C2=O)cc1OC
    .	-2.3
> COC(=O)c1c(C)oc2ccc(OCC(N)=O)cc12
    -0.5	1
> O=C(C1=C(c2ccccc2)C(=O)c2ccccc2C1=O)c1ccccc1
    0.25	25
> CN1CCCN(C(=O)c2ccccc2OCc2ccccc2)CC1
    -0.35	-0.26
> CC(C)CC(=O)OCc1ccc(Cl)c(Cl)c1
    0.2	0.08
> CC(C)(C)OC(=O)C(NC(=O)c1ccc(-c2ccccn2)s1)c1ccccc1 (centres undefined)
    .	9.5
> COc1cc2[nH]c(=O)n(CCCC(=O)N3CCN(c4cccc(Cl)c4)CC3)c(=O)c2cc1OC
    -0.1	0.41
> O=C(CS(=O)(=O)Cc1ccccc1)Nc1nccs1
    0	0.46
> CC1CCCN(C(=S)NC2CCCC2)C1 (centres undefined)
    -0.25	-0.2
> S=c1[nH]nc(-c2ccc(Cl)cc2)n1C1CCCCC1
    1.6	-0.29
> C=CCn1c(C(NC(=O)c2ccc(Cl)cc2Cl)C(C)C)n[nH]c1=S (centres undefined)
    -1.4	.
> CC(C)n1c(O)c(N=NC(=O)c2ccc3c(c2)OCO3)c2ccccc21
    -0.25	.
> COC(=O)C1=CN(C(C)C)C=C(C(=O)OC)C1c1ccccc1Cl
    -0.6	93
> O=C(Nc1cccc(COC(=O)c2ccccc2)c1)c1ccccc1
    0.05	0.54
> COC(=O)CC1=C(C(=O)OC)C(c2ccccc2)NC(=O)N1 (centres undefined)
    0.05	0.66
> COc1ccc(OC)c(NC(=O)CSc2nnc(CNc3ccc(C)cc3C)n2CC2CCCO2)c1 (centres undefined)
    1.9	.
> O=C(c1ccccc1)N1C(=S)C(c2ccccc2)=NC12CCCC2
    -1.2	-0.65
> O=C(OCC(=O)c1cccs1)c1cccc(C(=O)OCC(=O)c2cccs2)n1
    -0.35	.
> COc1cc(NC(C)C(=O)N(C)c2ccccc2)cc(OC)c1OC (centres undefined)
    3.2	.
> CCOc1ccc(C(=O)N2CCC(C)CC2)cc1
    0.15	.
> CCOC(=O)/C(=N\O)c1c(C)nn(C)c1C
    -2	.
> Cc1ccc(=O)n(Cc2ccc(F)cc2)n1
    -1.5	-0.55
> O=C(O)Cc1ccc(C(=O)CSc2ccccc2)s1
    1.5	-0.29
> Cc1cc(=O)[nH]c(SCc2nnc(-c3ccccc3)o2)n1
    -0.15	.
> CCCCCCCCCCCC(=O)c1ccccc1
    .	0.25
> COC(=O)c1sc(=S)n(C)c1C
    -0.5	0.84
> Cc1nc(SCC2=C(C(=O)OC(C)C)C(c3ccc(F)cc3)C(C#N)=C(N)O2)c(C#N)c(C)c1C (centres undefined)
    .	-0.075
> COC(=O)C1C(=O)C=C(Nc2cc(OC)ccc2OC)CC1c1ccc(OC)cc1 (centres undefined)
    0.3	-0.98
> O=C(COC(=O)c1ccc(Br)o1)NCc1ccccc1
    -0.5	-0.66
> CCc1cccc(NC(=S)N(C2CCCCC2)C(C)c2cccs2)c1 (centres undefined)
    -0.9	2
> CN(C)CC(O)C12CC3CC(CC(C3)C1)C2 (centres undefined)
    0.95	0.08
> Cc1nc2c(c(C)nn2C(C)(C)C)c(C)c1CCC(=O)Nc1ccccc1
    0.65	-0.42
> COc1cccc(NC(=O)Cn2c3ccccc3c3nc(=O)cc(C)n32)c1
    0.95	-0.92
> O=C(/C=C\c1ccccc1)OCCCN1C(=O)c2cccc3c(N4CCOCC4)ccc(c23)C1=O
    .	0.19
> O=C(NCC1CC1)c1cccs1
    -0.65	-0.91
> COc1ccc(CCNC(=O)CSC2=NS(=O)(=O)c3ccccc32)cc1OC
    -0.4	-1
> O=C1c2ccccc2C(=O)N1CCSc1ccccc1
    -0.3	-0.7
> CC(=O)N(Cc1ccccc1)c1ccccn1
    0.6	3.6
> CCCn1ccc(C(=O)O)n1
    -0.5	.
> Nc1cccc(C(=O)Nc2ccccc2N)c1
    0.45	0.73
> O=C(Cn1c(=O)n(Cc2ccco2)c(=O)c2sc3ccccc3c21)Nc1ccccc1
    0.1	19
> N#CCCn1cc(CO)c(-c2ccccc2)n1
    1.8	.
> Cc1cc(OCC(=O)c2ccc(C(F)(F)F)cc2)n2cnnc2n1
    -0.35	-0.21
> O=C(O)Cc1nc2ccccc2s1
    -0.75	.
> CCOC(=O)CSc1nc(N)c(C#N)c(-c2ccc(OC)cc2)c1C#N
    .	4.4
> O=C(CN1CCN(S(=O)(=O)c2ccc3c(c2)OCCO3)CC1)NC1CCCc2ccccc21 (centres undefined)
    -0.65	.
> Cc1ccccc1NC(=O)CSc1nc2c(c(-c3ccncc3)c1C#N)CCCC2
    .	-0.16
> NNC(=O)c1cc2sccc2nc1C(F)(F)F
    .	-0.19
> CCOC(=O)c1cnc(N2CCOCC2)nc1N
    -0.55	-0.7
> O=C(NC(Cc1c[nH]c2ccccc12)C(=O)NC1CCCCCC1)OCc1ccccc1 (centres undefined)
    .	-1.1
> CC1=NN(c2ccc(C)c(Cl)c2)C(=O)/C1=C\c1ccc(-c2ccc(S(N)(=O)=O)cc2)o1
    .	2.2
> Cc1ccccc1NC(=O)CC#N
    .	0.06

New compounds follow:
Each structure is followed by: AID504770	Ba CapD inh
> O=C1C(=O)N(c2ccccn2)C(c2ccccc2)/C1=C(/O)c1ccccc1 (centres undefined)
    0.95	0.29
> CCOC(=O)c1ccc(Nc2c(C(=O)OCC)cnc3c(C)cc(C)cc23)cc1
    .	-0.46
> CC1CCc2ccccc2N1C(N)=Nc1ccccc1 (centres undefined)
    -0.6	0.78
> COc1ccc(-c2cn3nc4c(nc3n2)CCCC4)cc1
    .	-0.73
> NNC(=O)c1cccc(S(=O)(=O)Nc2ccccc2Cl)c1
    -0.95	.
> COCCN(C(=O)c1cccc(C(F)(F)F)c1)C1CCN(C)CC1
    .	-0.75
> COCCn1c(O)c(/C=N/NS(=O)(=O)c2ccc(C)cc2)c(=O)[nH]c1=S
    -0.75	.
> COc1ccc(C(C(C)=O)C(C)=O)c(C(=O)O)c1
    .	-0.33
> COc1ccccc1Oc1ncnc2c1oc1ccccc12
    -0.7	.
> O=S1(=O)NC(=NC2CCCc3ccccc32)c2ccccc21 (centres undefined)
    2.3	.
> O=c1c2cc(Br)ccc2nc(-c2cccc(Cl)c2)n1O
    .	0.19
> CCN(CC)C(=O)c1ccc(CS(=O)c2cccc(Cl)c2)o1 (centres undefined)
    0.15	-0.41
> CC(=O)NNc1ncc(C(F)(F)F)cc1Cl
    1.3	0
> N#C/C(=C\N1CCN(c2ccccc2)CC1)S(=O)(=O)c1ccccn1
    -0.1	0.6
> Cc1cc(-c2ccccc2)nn1C(CC(=O)O)C(=O)O (centres undefined)
    0.05	-0.21

Further records follow.
SMILES,AID504770,Ba CapD inh
COC(=O)c1cc2sccc2s1,.,1.3
COc1ccc(S(=O)(=O)N(C)C2CCCCC2)cc1,0.45,.
CC1(C)CC(=O)C2=C(C1)N(c1cccc([N+](=O)[O-])c1)C(N)=C(C#N)C2c1cccc([N+](=O)[O-])c1 (centres undefined),.,-0.64
CC1CSC(N(C(=O)CN2C(=O)COc3ccccc32)c2ccc(Cl)cc2)=N1 (centres undefined),1.8,.
CN(Cc1ccccc1)Cc1ccccc1O,-0.95,-0.11
COc1ccc(C2C(C(=O)Nc3ccccc3)=C(C)Nc3ncnn32)cc1OC (centres undefined),.,-0.21
Cc1cc(C)c(C#N)c(N2CCN(CCOc3ccc(Cl)cc3)CC2)n1,-0.75,0.34
COc1ccccc1Cn1cnc2c1c(=O)n(C)c(=O)n2C,-1.4,-0.24
CCn1c(C)nc2cc(C(=O)OCCC(F)(F)F)ccc21,1.3,.
O=C1CS/C(=C/c2nc3ccccc3[nH]2)N1,0.7,-1.2
O=C(NCc1ccccc1)c1nn2c(c1Br)NC(c1ccccc1)CC2C(F)(F)F (centres undefined),.,-0.34
Cc1ccc(NC(=O)CSc2nc3ccccc3c(=O)n2CCCC(=O)N2CCCC2)cc1,0.45,0.21
Clc1cc(Cl)c(OCc2ccccc2)c(Cl)c1OCc1ccccc1,.,0.26
COc1ccc2oc(=O)c(C(=O)NCCN3CCOCC3)cc2c1,-0.15,.
O=C(O)c1cccnc1Sc1ccccc1Cl,-1.2,.
COc1cc(SC)ccc1C(=O)NC(C)C,0.3,-0.49
COc1ccccc1NS(=O)(=O)c1cccc(C(=O)N/N=C/c2ccc(C)o2)c1,-1.1,.
COCCCNC(=O)CSc1nc2ccccc2c(=O)n1CCCN1CCN(c2cccc(Cl)c2)CC1,.,0.26
CN(CC(=O)Nc1cccc2nsnc12)c1ccccc1,-0.8,.
Cc1nc2sc3c(c2c(=O)n1O)CCCC3,-1.1,0.65
CC1(C)OC(=O)C(C2C3C4CC5C6C4CC3C6C52)C(=O)O1 (centres undefined),0.8,.
CN(C)Cc1cc(C=NC2CCCCC2)c(S)s1,-0.15,-0.55
Cc1cc(-n2c(C)cc(C(=O)CSc3nc4ccccc4o3)c2C)no1,-0.4,.
S=C(NCc1ccccc1)NN1CCCCC1,-0.95,.
Cn1c(SCC(=O)N2c3ccccc3OCC2c2ccccc2)nnc1-c1ccco1 (centres undefined),-0.65,.
Cc1ccc(-c2n[nH]c(S(C)(=O)=O)c2C#N)cc1,-1.1,-0.15
CCC1CCCCN1C(=O)COC(=O)c1c2c(nc3ccccc13)CCC2 (centres undefined),-0.6,.
CCOC(=O)c1[nH]c2ccccc2c1N,-1.5,50
COC(=O)c1cc(C(O)(C(=O)OC)C(F)(F)F)c(N)s1 (centres undefined),-1.5,.
Cc1cccc(C(=O)NN(c2ccccc2)c2ccccc2)c1,1.5,0.55
NC(=O)c1c(NC(=O)c2cccnc2Cl)sc2c1CCCCC2,.,0.36
CC(=O)SC1CC(=O)N(c2cc(Cl)cc(Cl)c2)C1=O (centres undefined),1.6,-0.52
Cc1nc2ccccc2nc1CSCC(=O)c1cc(C)n(C)c1C,-1.2,.
CC(C)NS(=O)(=O)c1ccc(NC(=O)C2CC2C)cc1 (centres undefined),-0.55,0.5
CCOC(=O)c1c(CN2CCCCC2C)n(-c2ccccc2)c2cc(Br)c(OC(C)=O)cc12 (centres undefined),.,-0.08
COc1ccc(-n2cc(C(=O)N(Cc3ccco3)C3CCCC3)c3ccccc3c2=O)cc1,1.2,11
COC(=O)c1cc(COC(=O)/C=C/c2nc3ccccc3s2)oc1C,0.5,.
COC(=O)C1CC(c2ccc(Cl)cc2)=NO1 (centres undefined),0.3,0.11
CC(=O)N1CCN(CC(O)COc2ccc(C)cc2)CC1 (centres undefined),-0.2,-0.06
CN1C(C(=O)NC2CCCC2)=CC(c2cccs2)=NS1(=O)=O,0.2,0.57
CCCCN(C)C(=O)c1ccc2c(c1)N(CC)C(=O)c1ccccc1S2=O (centres undefined),-0.3,3.8
Cc1ccccc1Cn1nnc(-c2ccncc2)n1,-0.65,.
CCC(CC)NC(=O)c1ccc(S(=O)(=O)N2CCCCC2)cc1,-0.55,.
CN(C)S(=O)(=O)c1ccc(C(=O)OC2CCOC2=O)cc1 (centres undefined),0,.
Cc1cccc(Nc2cc(N3CCCC3)c3noc4c3c2C(=O)c2ccccc2-4)c1,.,-0.055
O=S(=O)(c1cccc(Br)c1)N(Cc1ccc(-c2ccccc2)cc1)Cc1ccco1,.,0.4
COc1cc(Cl)c(C)cc1NC(=O)CNC(=O)c1ccco1,1.2,.
CCn1c(SCc2cccc(C(=O)O)c2)nnc1-c1ccco1,-0.45,.
Cc1cc(C)cc(Oc2ccccc2/C=N\O)c1,-1.8,-0.56

Hits appear at their usual frequency; about 0.41% have a hit in one of these screens.
